NPYLR7 ag – activates Aedes aegypti NPYLR7 receptor | HEK293T NPYLR7/Galpha15, GCaMP6s calcium fluorescence | activation, % at 10 µM | hit rate 0.15% among 270,000; in the data active means activation above about 40%;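 further: 0% = vehicle and 100% = reference agonist at the receptor; some compounds past the cut are filed as inactive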
NPYLR7 ag max-min – further read-out of NPYLR7 ag, marked with its call; activation, %; measured here: Max-Min RFU normalised activation; some inactives read as strong as hits;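 span of the calcium signal over five minutes; 0% = vehicle and 100% = native peptide agonist; compound fluorescence can raise it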
* marks the source's active call; other numbers are inactive results. These rows are one share of the data. The share of hits here may be higher or lower than overall.

Values run as follows: NPYLR7 ag | NPYLR7 ag max-min
COC(=O)c1ccc(CN(Cc2ccc(OC)cc2)CC2CCCO2)o1 (stereo not drawn)
 : -5 | 2
CCC(C)NC(=O)c1cc(-c2ccc(OC)cc2)nc2cc(-c3ccccc3)nn12 (stereo not drawn)
 : 7 | 10
Cc1ccc(O)c(CN(C)Cc2cccc3ncccc23)c1
 : 0 | -1
COCCCN(Cc1cccn1Cc1cccc(F)c1)CC(O)Cc1ccccc1 (stereo not drawn)
 : -6 | -4
O=C(Oc1coc(CSc2ncccn2)cc1=O)c1ccc(S(=O)(=O)N2CCCCC2)cc1
 : -17 | -12
O=C(CSc1nnc(-c2ccncc2)n1CC(F)(F)F)NCC1CC1
 : 16 | 15
CS(=O)(=O)c1ccc(N2CCCC(CO)C2)c(S(C)(=O)=O)c1 (stereo not drawn)
 : 10 | 5
CCCCCCCCc1ccc(-c2ccc(C(=O)Nc3ccc(NCc4ccccc4)c4c3C(=O)c3ccccc3C4=O)cc2)cc1
 : -13 | -6
CC(c1ccon1)N(C)C(=O)c1cccc(CC2CCNCC2)c1 (stereo not drawn)
 : 3 | -1
COc1cc(OC)cc(C(=O)N(Cc2nc3cc(C)ccc3o2)Cc2ccccc2Cl)c1
 : 6 | 5
COC(=O)C(C)(Cc1ccccc1)NC(=O)c1ccc(-n2nc(-c3cccc(C)c3)cc2N)cc1 (stereo not drawn)
 : -5 | -10
O=C(Nc1ccc(-c2nc3ccccc3o2)c(O)c1)c1cc([N+](=O)[O-])ccc1Cl
 : -12 | -20
O=S(=O)(NCCOc1ccc(-c2ccccc2)nn1)c1ccc(Cl)s1
 : -4 | -13
CC(=O)Nc1ccnn1C1CCN(Cc2ccccc2OC(F)F)CC1
 : -2 | -2
O=C(CN1C(=O)c2cccc([N+](=O)[O-])c2C1=O)Nc1ccccc1F
 : -5 | -13
CCc1nccn1CCC(=O)N1CCCC(Nc2ccc(F)cc2)C1 (stereo not drawn)
 : 1 | -1
COc1cc2c(cc1OC)C(c1cccs1)N(S(=O)(=O)c1cccs1)CC2 (stereo not drawn)
 : 3 | 1
O=C(Nc1ccc(F)cc1F)C1CCN(C(=O)c2cccnc2)CC1
 : -3 | -2
CC1(C)CC(c2nccn2CCCc2nn[nH]n2)CCO1 (stereo not drawn)
 : 0 | 10
CC(=O)Oc1ccc(OC(C)=O)c(-c2ccccc2)c1
 : -4 | -9

A draw from above in order of number of heavy atoms, rising.
Values run as follows: NPYLR7 ag | NPYLR7 ag max-min
CC(=O)Oc1ccc(OC(C)=O)c(-c2ccccc2)c1
 : -4 | -9
CC1(C)CC(c2nccn2CCCc2nn[nH]n2)CCO1 (stereo not drawn)
 : 0 | 10
O=C(CN1C(=O)c2cccc([N+](=O)[O-])c2C1=O)Nc1ccccc1F
 : -5 | -13
COC(=O)C(C)(Cc1ccccc1)NC(=O)c1ccc(-n2nc(-c3cccc(C)c3)cc2N)cc1 (stereo not drawn)
 : -5 | -10

(listing goes on)
Values run as follows: NPYLR7 ag | NPYLR7 ag max-min
Cc1nc2ccccn2c(=O)c1NC(=O)c1cccc(C(F)(F)F)c1
 : 2 | -1
CCN(CC)S(=O)(=O)c1ccc(N2CCCC2=O)cc1
 : -3 | -7
O=c1[nH]cnc2c1c(-c1ccccc1)cn2-c1ccc(Br)cc1
 : -4 | -10
CCOC(=O)C1CCCN(CC(=O)N2N=C(c3ccc(F)cc3)CC2c2ccccc2Cl)C1 (stereo not drawn)
 : 17 | 10
CN(Cc1n[nH]c2c1CCCCC2)c1nncc(-c2ccc(Cl)cc2)n1
 : -5 | -5
CCCS(=O)(=O)N1CCC(C(=O)O)CC1
 : 19 | 17
CCOC(=O)Nc1ccc2c(c1)C(=O)N(C)c1ccccc1O2
 : 5 | 1
CCN(Cc1nc(COC)no1)C(=O)C1CCCO1 (stereo not drawn)
 : -1 | -8
COc1cccc(NC(=S)N2CC(=O)N3CCc4cc(C)ccc4C3C2)c1 (stereo not drawn)
 : 29 | 10
Cc1onc(-c2ccccc2Cl)c1C(=O)OCN1C(=O)c2ccccc2C1=O
 : 8 | 9
Cc1ccc(S(=O)(=O)N(C)CC(=O)NNC(=O)c2sc3ccccc3c2C)cc1
 : 6 | 5
CNc1nc2cnc(-c3ccc(OC)c(OC)c3)cc2n1Cc1ccccc1
 : 32 | 19
Cc1noc(-c2ccco2)c1C(=O)NCc1cccnc1
 : 14 | 18
CC(C)CC(NC1CSCCSC1)c1cccnc1 (stereo not drawn)
 : -2 | -5
COc1cccc(C(=O)N(CCN2CCOCC2)Cc2nccn2Cc2ccccc2F)c1
 : 15 | 11
CCOc1ccc(NC(=O)N2CCc3ccccc3C2c2ccc(Cl)cc2)cc1 (stereo not drawn)
 : 0 | 12
CCOC(=O)C1(CCOC)CCN(C(=O)CCn2c(C)nc3ccccc32)CC1
 : 5 | 6
O=C(NC1CCCCC1)c1cc(-c2ccc(Cl)s2)nc2ccccc12
 : 2 | 5
CC(C)N(C)Cc1nnnn1CC(=O)N1CCCCC1c1ccc(F)cc1 (stereo not drawn)
 : 14 | 4
COc1ccc(-c2noc(CSc3nnc(C4CC4)n3C)n2)cc1OC
 : 8 | 8

The results go on:
Values run as follows: NPYLR7 ag | NPYLR7 ag max-min
CCCCCn1c(SCCN2CCOCC2)nc2c1c(=O)[nH]c(=O)n2C
 : 10 | 6
CC(C)COc1ccc(NC(=O)c2nn(C)c(=O)c3ccccc23)cc1Cl
 : -3 | -2
CCCC(CCC)C(=O)NCCn1ncc2c(NC(C)C)nc(SCC)nc21
 : -4 | -5
COc1ccc(-c2c(=O)n(OCc3ccccc3Cl)c3ccccc3[n+]2[O-])cc1OC
 : -5 | -10
CC(=O)Nc1ccc(CN2CCC2(C)C(=O)Nc2ccc3c(c2)OCCO3)cc1 (stereo not drawn)
 : -2 | -3
COc1ccc(-c2ccc(=O)n(CCNC(=O)c3sc(C)nc3C)n2)cc1
 : 4 | 4
COc1ccc(-c2cn[nH]c2-c2ccc(OCCN3CCCCC3)cc2O)cc1OC
 : 1 | -1
O=C(COc1ccc(Cl)cc1)N1CCc2ccccc2C1c1ccc(Cl)cc1 (stereo not drawn)
 : -3 | -2
CC(OC(=O)c1n[nH]c2ccccc12)C(=O)N(C)C1(C#N)CCCCC1 (stereo not drawn)
 : 5 | 1
Cc1cnc(CN(C)C(=O)CC2COc3ccc(C(=O)N(C)C)cc3N2C)[nH]1 (stereo not drawn)
 : 0 | -1
COC(=O)c1cc(C)nc(Nc2nc(C(N)Cc3ccc(F)cc3)cs2)n1 (stereo not drawn)
 : -3 | -9
O=C(O)c1ccc(Oc2nc(Cc3ccccc3)ns2)cc1
 : -11 | -1
CCCc1cc(C2CCCN2C(=O)Nc2cc(Cl)c(OC)cc2OC)no1 (stereo not drawn)
 : -3 | -11
CC1(C)CC(Nc2nnc(-c3ccccc3)s2)CC(C)(C)N1
 : 0 | -2
COc1ccc(N2CCN(C(=O)c3csc(CSc4nnc(-c5ccncc5)n4-c4ccccc4Cl)n3)CC2)cc1
 : 3 | 9
O=C(NC(c1ccc(F)cc1)c1ccc(SCc2ccccc2)cc1)C1CC1(c1ccccc1)c1ccccc1 (stereo not drawn)
 : -6 | -11
CCCNC(=O)C(NC(=O)CC(C)C)C1CCN(C(=O)c2cccs2)CC1 (stereo not drawn)
 : -2 | 5
COc1ccccc1C(C)S(=O)(=O)CC1CCCCO1 (stereo not drawn)
 : 4 | 3
N#Cc1c(-c2ccncc2)cc(-c2ccc(Cl)cc2)nc1N
 : 9 | 7
CC1(C)CC(=O)C=C(NCc2ccco2)C1
 : -8 | -9

As entered above.
CCCCCn1c(SCCN2CCOCC2)nc2c1c(=O)[nH]c(=O)n2C in NPYLR7 ag is listed with 10
CC(OC(=O)c1n[nH]c2ccccc12)C(=O)N(C)C1(C#N)CCCCC1 (stereo not drawn) in NPYLR7 ag is listed with 5
CC(C)COc1ccc(NC(=O)c2nn(C)c(=O)c3ccccc23)cc1Cl in NPYLR7 ag is listed with -3
O=C(COc1ccc(Cl)cc1)N1CCc2ccccc2C1c1ccc(Cl)cc1 (stereo not drawn) in NPYLR7 ag max-min is listed with -2

Other entries follow.
Values run as follows: NPYLR7 ag | NPYLR7 ag max-min
O=c1ccc2c3occ(O)c3c3occ(O)c3c2o1
 : 2 | -1
CCN1C(=O)N(Cc2cccc(OC)c2)C(=O)C12CCN(Cc1cc3ccccc3s1)CC2
 : 9 | 0
CC1=C[C@@H](CNC(=O)Nc2ccccc2)[C@H](C(C)C)C[C@H]1CC(=O)NCc1cccnc1
 : -9 | -15
O=C1c2ccccc2C(=O)N1CCCCN(C(=O)COc1ccccc1)c1ccc(Cl)cc1
 : -3 | -7
Cc1cc(C(=O)NC2CCCN(Cc3ccccc3F)C2)c2ccccc2n1 (stereo not drawn)
 : 2 | 1
CN(C)c1ccc(NC(=O)C2CCC2)cc1CN(C(=O)c1cccs1)C1CCCCC1
 : -4 | 6
COc1cc2c(cc1OC)C(CNC(=O)c1ccc(F)cc1)N(C(=O)NC(C)(C)C)CC2 (stereo not drawn)
 : 0 | 10
O=C(NC12CC3CC(CC(C3)C1)C2)c1cc2nc(-c3ccccc3)cc(C(F)(F)F)n2n1
 : -11 | -19
COCC(=O)Nc1cccc(NC(=O)N2CC3CC4CC(C3)CC2C4)c1
 : 8 | 6
Cc1ccc(NC(=O)c2cc(-c3cccs3)nn2-c2ccc(F)cc2)cc1C
 : 10 | 12
CCOC(=O)c1cc(-c2cccc(NC(=O)c3ccno3)c2)n(-c2ccc(F)cc2)n1
 : 22 | 11
COc1nc(-c2ccc(C)cc2)n(-c2ccc(NC(=O)c3ccccc3C)cc2)n1
 : 28 | 23
CC1(C(=O)N2Cc3ccccc3C2)CCN1C(=O)c1cccc(F)c1 (stereo not drawn)
 : 3 | -1
O=C(CC1NC(=O)c2ccccc21)NCc1cccnc1Oc1ccccc1 (stereo not drawn)
 : 3 | 3
O=C(O)c1ccc(F)c(S(=O)(=O)Nc2c(F)cccc2-n2cccn2)c1
 : 9 | -5
CNS(=O)(=O)Cc1cccc(CNc2nc(C(C)C)ns2)c1
 : 1 | -4
Cc1ccc(CN(Cc2ccccc2)C(=O)CNC2CC2)o1
 : 2 | 9
CCCCC(CC)C(=O)N(Cc1ccco1)C(C)c1nc2ccccc2c(=O)n1-c1ccccc1OC (stereo not drawn)
 : -7 | 2
CC1(C)CC(=O)C(CC2C(=O)CC(C)(C)CC2=O)C(=O)C1
 : -4 | -5
CCOC(=O)N1CCN(C(=O)c2csc(Nc3ccc(OC(F)F)cc3)n2)CC1
 : 6 | -3

(next part)
Values run as follows: NPYLR7 ag | NPYLR7 ag max-min
O=C(NC1CCN(c2ccccc2C(=O)N2CCN(C3CCCCCC3)CC2)CC1)c1ccccc1Cl
 : 18 | 32
CCC(C(=O)N1CCN(c2ncccc2C(=O)NCCc2ccc(OC)c(OC)c2)CC1)c1ccccc1 (stereo not drawn)
 : 14 | 3
Cc1ccc(C(=O)O)c(N2CCCN(CC3CC3)C(C(C)C)C2)n1 (stereo not drawn)
 : -3 | -4
COc1cccc2c1OCC(NC(=O)c1coc(COc3ccccc3)n1)C2 (stereo not drawn)
 : -4 | -15
COCCOC(=NCCN(C)C)NC(=O)c1cccc(C)c1
 : 24 | 24
CC(=O)NCCn1ccnc1C1CCOC(C)(C)C1 (stereo not drawn)
 : 31 | 27
S=C(NC1Cc2ccccc2C1)N1CCCC1
 : 0 | -1
CCCCCCCC(=O)Nc1c(C)ccn(C)c1=O
 : 2 | -17
CCN(CC)Cc1cccc(NS(=O)(=O)NCc2ccccc2)c1
 : 3 | -1
CC(=O)Nc1ccc(-c2ccnc3c2CC(C)(C(=O)NCCN(C)C)O3)cc1 (stereo not drawn)
 : 1 | 9
CCOCCCNC(=O)NC(=O)CSc1nnc(Nc2ccc(C)cc2)s1
 : 5 | 6
Cc1cc(OCCCS(C)(=O)=O)cc(C)c1-c1cccc(COc2ccc3c(c2)OC[C@H]3CC(=O)O)c1
 : -1 | -8
CCNc1ncc(C(=O)NCC2(O)CCCNCC2)cn1 (stereo not drawn)
 : 13 | 10
COc1ccc(N(C(=O)CCc2nccs2)C(C)C)cc1F
 : -8 | -7
Cc1ccccc1NC(=O)c1c(NC(=O)Cc2ccccc2)sc2c1CCCC2
 : -11 | -17
COc1ccccc1CN1C(=O)C(C)ON=C1c1ccccn1 (stereo not drawn)
 : -1 | -5
C=c1c(C#N)c2[nH]c(N)c(C#N)c(C)c-2/c1=C\c1cc2c(cc1OC)OCO2
 : 16 | 11
CO[C@@]1(NC(=O)C2SC(=C(C(N)=O)C(=O)O)S2)C(=O)N2C(C(=O)O)=C(CSc3nnnn3C)CS[C@@H]21 (stereo partly drawn)
 : -4 | -6
CC(C)CN=C(N)NCC(C)Cn1cccn1 (stereo not drawn)
 : -1 | -4
CCCCCCCCCn1c(SCC(C)=O)nc2c1c(=O)[nH]c(=O)n2C
 : -10 | -8

Reprinted from the part before: 5 compounds, then new ones.
Values run as follows: NPYLR7 ag | NPYLR7 ag max-min
COc1ccccc1CN1C(=O)C(C)ON=C1c1ccccn1 (stereo not drawn)
 : -1 | -5
C=c1c(C#N)c2[nH]c(N)c(C#N)c(C)c-2/c1=C\c1cc2c(cc1OC)OCO2
 : 16 | 11
CO[C@@]1(NC(=O)C2SC(=C(C(N)=O)C(=O)O)S2)C(=O)N2C(C(=O)O)=C(CSc3nnnn3C)CS[C@@H]21 (stereo partly drawn)
 : -4 | -6
CC(C)CN=C(N)NCC(C)Cn1cccn1 (stereo not drawn)
 : -1 | -4
CCCCCCCCCn1c(SCC(C)=O)nc2c1c(=O)[nH]c(=O)n2C
 : -10 | -8
CCOc1c(Cl)cc(C=CC(=O)N2CCCC2c2ccc3c(c2)OCCO3)cc1OC (stereo not drawn)
 : 1 | 2
Cc1ccc(Br)cc1NCN1C(=O)c2ccc(Br)cc2C1=O
 : 3 | 3
O=C(COc1ccccc1)Nn1cnc2c(cnn2-c2ccccc2)c1=O
 : 4 | 1
CCC(C)NC(=O)c1ccccc1NS(=O)(=O)C1=Cc2ccccc2CC1 (stereo not drawn)
 : 8 | 5
Cc1cccc(-c2noc(N3CCOCC3)c2CN(Cc2ccco2)C(=O)C2CCCC2)c1
 : 6 | 10
COc1cc(NC(=O)N(CC(=O)N(CCc2c[nH]c3ccccc23)Cc2ccc(OC)c(OC)c2)C2CC2)cc(OC)c1
 : 17 | 10

Compound activity from PubChem BioAssay.
